High-throughput results as filed in PubChem.
Mtb growth = Mycobacterium tuberculosis H37Rv growth inhibition, cell based, confirmatory dose response (AID 1949); M. tuberculosis H37Rv growth inhibition; one-dose inhibition, % at 10 µg/mL; IC50 in µg/mL for titrated hits; most inactive calls were filed without a number and no value below 0 was filed; 100,000 compounds, 1.6% hits;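 active means confirmed in a dose series; inconclusive means about 50% or more but not retested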;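 further: bacteria grown 7 days with compound before Alamar blue readout; 0% = untreated bacteria and 100% = reference antibiotic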
Starred values were filed as active, the others as inactive; i = inactive; ? = inconclusive. These rows are one share of the data. The share of hits here may be higher or lower than overall.

SMILES | Mtb growth
Cc1sc(NC(=S)NC(=O)c2ccco2)c(C#N)c1C | i
O=C(O)C1C2C=CC(C2)C1C(=O)NCc1ccco1 (centres undefined) | i
CCN(CC)CCCN1C(=O)C(O)=C(C(=O)c2cccs2)C1c1ccccn1 (centres undefined) | i
Cc1ccc(C(=O)Nc2sc3c(c2C#N)CCC(C(C)(C)C)C3)c(C)c1 (centres undefined) | i
N#CSCC(=O)c1ccc([N+](=O)[O-])cc1 | 0%
O=C(Nc1ccc2c(c1)nc1n2CCN(Cc2ccccc2)C1)c1cccs1 | i
O=C(Nc1ccccc1)c1ccc(NC2CCCCC2)c(S(=O)(=O)N2CCOCC2)c1 | 9%
CC1=C(C(=O)OCc2ccccc2)C(c2cccc(Cl)c2Cl)CC(=O)N1 (centres undefined) | 2%
COc1ccc(Oc2ncnc3c2ncn3Cc2ccccc2)cc1 | i
NC(=O)c1c(NC(=S)NC(=O)c2cccs2)sc2c1CCC2 | i
Nc1ccc2nc(SCc3nc4ccccc4c(=O)n3-c3cccc(C(F)(F)F)c3)[nH]c2c1 | i
COCCn1c(CCc2ccccc2)nnc1SCC(=O)Nc1ccc(F)c(Cl)c1 | i
O=C(CSc1nccn1Cc1ccccc1)NCc1ccccc1 | i
C=CCNCCOCCSc1ccc(Cl)cc1 | i
NS(=O)(=O)c1ccc(NC(=S)Nc2cccc(C(=O)O)c2)cc1 | i
COc1ccccc1NC(=O)c1ccc(NC(=O)c2ccco2)cc1 | i
O=C(c1ccccc1F)N1CCN(S(=O)(=O)c2ccc(F)cc2)CC1 | i
Cc1cc(C)cc(NC(=O)C2C3C4CCC(C4)C23)c1 (centres undefined) | 32%
COc1ccc2c(c1)c(=O)oc1cc(OCC(=O)N3CCc4ccccc4C3)ccc12 | i
Cc1cc(=O)oc2cc(Oc3ccc([N+](=O)[O-])cc3C(F)(F)F)ccc12 | ?
CCCC(C)C(=O)Nc1nnc(C2CCCCC2)s1 (centres undefined) | 3%
COc1ccc2cc(Br)ccc2c1CC#N | i
Cc1cc(C)nc(NS(=O)(=O)c2ccc(NC(=O)C(C)C)cc2)n1 | i
Cc1c(OC(C)c2ccccc2)ccc2c1oc(=O)c1ccccc12 (centres undefined) | i
O=C(c1ccccc1)N1CCC(N2CCN(Cc3ccccc3)CC2)CC1 | i

The listing continues.
SMILES | Mtb growth
CC(=O)c1ccc(OC(C)C)c(CSc2nc(O)cc(=O)[nH]2)c1 | i
O=C(CN1C(=O)CNC1=O)Nc1ccc(Cl)cc1 | i
CCCCOc1ccccc1NC(=O)c1ccc(OC)cc1 | 19%
COc1ccc(Cl)cc1NC(=O)c1ccccc1NC(=O)c1cccc(C)c1 | i
CCOc1cc(S(=O)(=O)n2nc(C)cc2C)ccc1F | i
CCN(CC)C(=O)N1CCN(c2ccccc2F)CC1 | 2%
O=C(O)CC(Cc1ccccc1)C(=O)Nc1ccc(Cl)c(Cl)c1 (centres undefined) | 0%
COc1ccc(C(=O)NC(=S)Nc2ccc(C(=O)O)cc2)cc1Br | i
COc1ccc(-n2nc3cc(C)c(NC(=S)NC(=O)c4cccc5ccccc45)cc3n2)cc1 | i
O=C(NCCCN1CCOCC1)c1cc(-c2cccs2)nc2ccccc12 | i
CCN(CC)C(=O)CN(Cc1ccc(Cl)cc1)S(=O)(=O)c1ccc(Br)cc1 | i
CCn1nnc(NC(=S)NC(=O)c2cc3ccccc3o2)n1 | i
Cn1c(=O)c2c(nc(Oc3ccc(Br)cc3)n2Cc2ccccc2Cl)n(C)c1=O | i
COC(=O)c1cc(OC)c(OC)cc1NC(=O)Cc1cccs1 | i
Cn1c(Cc2cccs2)nnc1SC/C=C/c1ccccc1 | i
O=C(O)CNc1nc2ccccc2s1 | i
CCCCSc1nnc(NC(=O)CSc2nncn2C)s1 | i
CCc1ccc(OCC(=O)N2CCN(c3ccccc3F)CC2)cc1 | 3%
O=C(NC(=S)Nc1ccc(S(=O)(=O)N2CCOCC2)cc1)C1CCCCC1 | i
CCOc1ccc(C(=O)NC(=S)Nc2cc(C(=O)O)ccc2OC)cc1[N+](=O)[O-] | i
COc1ccc(C)cc1NC(=O)CCCOc1cc(C)ccc1C | i
O=C(c1ccc(-c2ccccc2)cc1)N1CCC(C(=O)N2CCN(c3ccccc3F)CC2)CC1 | 14%
O=C(CSc1nc(O)c(-c2ccccc2)c(=O)[nH]1)N(c1ccccc1)c1ccccc1 | ?
Cc1cc(C)cc(N(CC(=O)Nc2ccc(C(N)=O)cc2)S(C)(=O)=O)c1 | i
COC(=O)COc1ccc(S(=O)(=O)NCCC2=CCCCC2)cc1Cl | i

New compounds follow
SMILES | Mtb growth
COc1ccc([N+](=O)[O-])cc1NC(=O)c1ccc2c(c1)C(=O)N(C(C)(C)C)C2=O | i
O=C1C(=Cc2ccc(-c3ccc([N+](=O)[O-])cc3Br)o2)C(=O)c2ccccc21 | i
COc1cccc(C(=O)COc2cc(C)c3c(c2)oc(=O)c2ccccc23)c1 | i
COc1ccc(C2NC(=O)C(=O)/C2=C(\O)c2ccc(Cl)cc2)cc1OC (centres undefined) | i
CSc1cccc(NC(=O)c2cc(-n3cnnc3)ccc2Cl)c1 | i
COc1c(C)cccc1C(=O)NCCOc1ccc(Cl)cc1 | 4%
CC(C)(C)c1ccc(OCc2nc(-c3ccncc3)no2)c(Br)c1 | i
CCc1ccc(OCc2n[nH]c(=S)n2C)cc1 | 5%
Cc1onc(-c2ccccc2Cl)c1C(=O)Nc1ccc(OC(C)C)cc1 | 2%
COc1ccc(Cc2nnc(SCC(=O)Nc3cc(C(F)(F)F)ccc3Cl)o2)cc1 | i
COc1ccc(S(=O)(=O)NCc2ccncc2)cc1C | i
O=C(NC12CC3CC(CC(C3)C1)C2)c1ccccc1 | i
CCOc1ccc(NC(=S)Nc2ccccc2C)cc1 | 44%
CCN(CC)Cc1nc2ccccc2c(=O)n1-c1ccc(F)cc1 | i
CCC(C)NCCOc1ccccc1C (centres undefined) | i
CCOC(=O)c1[nH]nc(N)c1-c1cccc(OC)c1 | i
OC(COc1ccc(Cl)cc1)Cn1cnc2ccccc21 (centres undefined) | 11%
COc1ccc(NC(=S)NC(=O)c2ccccc2F)cc1Cl | i
O=C1CC(N2CC=C(c3ccccc3)CC2)C(=O)N1c1ccc(Cl)cc1 (centres undefined) | i
COc1ccc(N2CCN(C(=O)c3ccc(Cl)c(Cl)c3)CC2)cc1 | 2%
O=C(CSc1ccccc1)Nc1cccc(C(=O)c2ccccc2)c1 | 1%
COc1ccc2c(=O)c(-c3ccc(OC)c(OC)c3)c(C)oc2c1 | i
Cc1cnn(C(=O)c2ccccc2[N+](=O)[O-])c1 | i
COc1ccc(CNC(=O)c2oc3ccccc3c2C)cc1 | i
O=C(Nc1cccc2ncccc12)c1ccc(-c2nnc(-c3ccccc3)o2)cc1 | i

An excerpt of these results, as tab-separated lines.
molecule	Mtb growth
COc1ccc(S(=O)(=O)NCc2ccncc2)cc1C	i
O=C(NC12CC3CC(CC(C3)C1)C2)c1ccccc1	i
CCOc1ccc(NC(=S)Nc2ccccc2C)cc1	44%
CCN(CC)Cc1nc2ccccc2c(=O)n1-c1ccc(F)cc1	i
CCC(C)NCCOc1ccccc1C (centres undefined)	i
CCOC(=O)c1[nH]nc(N)c1-c1cccc(OC)c1	i
OC(COc1ccc(Cl)cc1)Cn1cnc2ccccc21 (centres undefined)	11%
COc1ccc(NC(=S)NC(=O)c2ccccc2F)cc1Cl	i
O=C1CC(N2CC=C(c3ccccc3)CC2)C(=O)N1c1ccc(Cl)cc1 (centres undefined)	i
COc1ccc(N2CCN(C(=O)c3ccc(Cl)c(Cl)c3)CC2)cc1	2%
O=C(CSc1ccccc1)Nc1cccc(C(=O)c2ccccc2)c1	1%
COc1ccc2c(=O)c(-c3ccc(OC)c(OC)c3)c(C)oc2c1	i
Cc1cnn(C(=O)c2ccccc2[N+](=O)[O-])c1	i
COc1ccc(CNC(=O)c2oc3ccccc3c2C)cc1	i

Remaining list, next part.
SMILES | Mtb growth
c1ccc(-c2ccccc2OCCN2CCOCC2)cc1 | i
Nc1ncnc(N2CCN(C(c3ccccc3)c3ccccc3)CC2)c1[N+](=O)[O-] | 2%
O=C(Nc1ccccc1N1CCCCC1)c1ccc(Br)o1 | 15%
COC(=O)c1cc(OC)c(OC)cc1NC(=O)COc1ccc(C(C)C)cc1 | i
Cc1nc2c3ccccc3n(CCc3ccccc3)c2s1 | 48%
CCCC(=O)NC(=S)Nc1cc(Cl)cc(Cl)c1 | 6%
C=CCn1c(SCc2ccc(Cl)c(Cl)c2)nnc1-c1ccccc1O | 9%
COc1cc(C)c(Cl)cc1S(=O)(=O)n1ccnc1 | i
COCc1nnc(NS(=O)(=O)c2ccc([N+](=O)[O-])cc2)s1 | ?
CC(C)OC(=O)c1ccc(NC(=O)CCN2C(=O)C3C4CCC(C4)C3C2=O)cc1 (centres undefined) | i
O=C(CSc1nnc(Cc2cccs2)n1-c1ccccc1)N1CCc2ccccc21 | i
Cc1ccc(OCCCN(C)C)c(Br)c1 | i
CN(CC(=O)Nc1ccc(Br)cc1)S(=O)(=O)c1ccccc1 | i
O=C(NC12CC3CC(CC(C3)C1)C2)N1CCN(c2ccccc2O)CC1 | i
CCOC(=O)c1ccc(NC(=S)NNC(=O)Cc2cccn2C)cc1 | 1%
O=C1CCC(=O)N1OCCSc1ccccc1 | i
COc1cccc(CN(CC(C)C)C(=O)NC2CCCCC2)c1OC | 4%
O=C(CCC(=O)NC1CCCCC1)Nc1nc(-c2cc3ccccc3oc2=O)cs1 | i
O=C(CNC(=O)c1ccccc1)Nc1cccc(-c2cnc3ccccc3n2)c1 | i
Cc1ccccc1C1CC(c2cccs2)Nc2nnnn21 (centres undefined) | i
Clc1ccc2nc(-c3ccccn3)cc(-c3ccccc3)c2c1 | i
CCC(=O)Nc1cccc(Cl)c1N1CCOCC1 | i
COc1ccc(CCNC(=O)c2cc(Br)ccc2Cl)cc1OC | i
CCS(=O)(=O)c1nc2ccccc2n1Cc1cccc(F)c1 | 1%
CC(C)(C)c1csc(NC(=O)c2ccc(Cl)s2)n1 | 48%

Following part
SMILES | Mtb growth
O=C(c1ccccc1)N1CCN(C2CC(=O)N(c3ccc(F)c(Cl)c3)C2=O)CC1 (centres undefined) | 1%
COc1cc(C2NC(=S)NC3=C2CCc2ccccc23)cc(OC)c1OC (centres undefined) | i
CC(C)C(=O)Nc1ccc(C(=O)NNC(=S)NC(=O)c2ccc(-c3ccccc3)cc2)cc1 | 2%
CSc1cccc(NC(=O)C2CCN(S(=O)(=O)c3c(C)cc(C)cc3C)CC2)c1 | i
CCc1nc(Cc2ccc(OC)cc2)no1 | i
O=C(Nc1nnc(C(F)(F)F)s1)c1csc2c1CCCC2 | i
COC(=O)C1=CN(C2CCCCC2)C=C(C(=O)OC)C1c1cccc(C)c1 | i
Cc1cccc(OCC(=O)Nc2ccc3c4c(cccc24)C(=O)NC3=O)c1 | i
Cc1ccc(C(=O)NCCCc2ccccc2)s1 | i
N/C(=N\OC(=O)CC(c1ccccc1)c1ccccc1)c1ccccc1 | i
CNC(=S)NNc1nc(C)cc(C)n1 | 0%
Cn1nnc2cc(C(=O)Nc3cccc(C(F)(F)F)c3)ccc21 | i
O=S(=O)(c1ccc(NC(=S)N2CCN(c3ccccc3F)CC2)cc1)N1CCOCC1 | i
N#Cc1ccc(COc2ccc(C=O)cc2)cc1 | i
O=C(CSCCO)Nc1ccc(F)cc1 | i
Cc1cccc(-c2nc3c(c(SCC(=O)c4ccc(O)c(O)c4)n2)CCCC3)c1 | 13%
CCN(C(=O)C(Sc1ccccc1)c1ccccc1)C1CCCCC1 (centres undefined) | 9%
O=S(=O)(Nc1ccc(-c2ccccc2)cc1)c1ccccc1 | i
COc1ccc(C(=O)Nc2ncc(S(=O)(=O)c3ccc([N+](=O)[O-])cc3)s2)c(OC)c1 | 4%
Cc1ccccc1CNC(=O)CN(c1ccc(F)cc1)S(C)(=O)=O | i
CC(=O)c1cccc(NC(=S)Nc2ccc(Cl)cn2)c1 | 34%
CC(C)(C)NS(=O)(=O)c1ccc(NS(=O)(=O)c2ccc(Cl)cc2)cc1 | 2%
Cc1cccc(NC(=O)COc2ccc(Br)cc2C)n1 | 6%
O=C1CCCN1c1ccc(S(=O)(=O)Nc2ccc(I)cn2)cc1 | i
O=C1c2ccccc2C(=O)N1Cc1nc2ccccc2c(=O)n1-c1ccccn1 | i

Of the compounds above, these contain an NH in an aromatic ring:
SMILES | Mtb growth
Nc1ccc2nc(SCc3nc4ccccc4c(=O)n3-c3cccc(C(F)(F)F)c3)[nH]c2c1 | i
CC(=O)c1ccc(OC(C)C)c(CSc2nc(O)cc(=O)[nH]2)c1 | i
O=C(CSc1nc(O)c(-c2ccccc2)c(=O)[nH]1)N(c1ccccc1)c1ccccc1 | ?
CCc1ccc(OCc2n[nH]c(=S)n2C)cc1 | 5%
CCOC(=O)c1[nH]nc(N)c1-c1cccc(OC)c1 | i

Other records
SMILES | Mtb growth
CN(c1cccc(NC(=O)c2ccc(-c3ccccc3)cc2)c1)S(C)(=O)=O | 0%
COc1ccc(CC(=O)NNC(=O)Nc2cccc(Cl)c2Cl)cc1OC | i
CCOC(=O)c1ccc(NC(=S)NNC(=O)OC(C)(C)C)cc1 | i
Cn1c(SCC(=O)N2CCCCC2)nnc1-c1cccc(NC(=O)c2ccccc2)c1 | i
COc1ccc(C(=O)COC(=O)CN2C(=O)C3CC=CCC3C2=O)cc1 (centres undefined) | i
COc1ccc(-c2noc(-c3ccc(C)cc3C)n2)cc1OC | i
Cc1cc(C)nc(/N=C(\N)Nc2ccccc2Sc2ccccc2)n1 | i
CCCC(=O)NCCc1nc2ccccc2n1Cc1c(F)cccc1Cl | 0%
COC(=O)c1cc(NS(=O)(=O)c2ccc3c(c2)OCCO3)ccc1Cl | i
CN(C)c1ccc(C2/C(=C(\O)c3ccccc3)C(=O)C(=O)N2c2ccccn2)cc1 (centres undefined) | i
CSc1ccc(S(=O)(=O)Nc2ccc3c(c2)N(C(C)=O)c2ccccc2CC3)cc1 | i
CCCC(=O)NC(c1ccccc1Cl)c1ccc2cccnc2c1O (centres undefined) | 0%
CC(C)c1ccc(OCC(=O)Nc2ccc(OC(F)(F)F)cc2)cc1 | i
